Mtb hypoxia rep: reduces hypoxia-regulated biosensor signal in M. tuberculosis | M. tuberculosis hypoxia-regulated fluorescent reporter, fluorescence | AID 1159583 | fluorescence inhibition, % (concentration not given with the values) | 300,000 compounds, 0.1% hits;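 active = 35 to 45% if threefold the growth effect, above 45% if 1.5-fold the growth effect; inactive = the rest, general growth blockers included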;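 note: wells of about 50 µL received 100 nL stock; 0% = vehicle wells and 100% = reference inhibitor wells; whole bacteria with a GFP reporter of the hypoxia response; strong numbers were not always called active; many hits fall short of the cut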
BJeLR viability: BJeLR cell viability loss; BJeLR (HRASV12) viability, CellTiter-Glo ATP luminescence, 48 h; reference of the scale not given here; inhibition, % (no concentration beside the values); AID 1554; 300,000 compounds, 0.17% hits;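 active = replicate mean above 50%; inconclusive = above 50% but judged a plate artefact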;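 note: 50 nL library stock added to about 25 µL; numbers are from one replicate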
ugtP null kill: growth inhibition of S. aureus ugtP deletion strain | S. aureus RN4220 ugtP deletion, OD600 growth, 16 h; some inactives read as strong as hits | growth inhibition, % (test concentration not listed) | 330,000 compounds, 0.54% hits | AID 1259309;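 active = z-score under -3 and OD600 up to 0.15 on both plates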;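 note: plate controls were untreated wells for no effect and antibiotic for full effect; wells of about 80 µL received 100 nL stock; the first replicate is given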
Bead autofluor: flagged as autofluorescent in microsphere protease counterscreen; compound autofluorescence counterscreen, microsphere flow cytometry; hits give high values; fluorescence intensity (no concentration beside the values); 360,000 compounds, 3.1% hits; AID 624483;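 active = at least 3 SD above the mean of all compounds, about 16000 in these data; inconclusive = too few beads counted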;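 note: 100 nL of 1 mM stock went into each well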
PrP UTR inh: suppresses PrP 5' UTR mRNA reporter expression | cell-based PrP 5' UTR mRNA reporter, plate reader | inhibition, % (no concentration beside the values) | 340,000 compounds, 0.35% hits;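 active = every replicate at 50% or more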;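 note: 0 = median of the neutral control wells; tested in H4 reporter cells; numbers are from one replicate; inactives centre near -14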
RN4220 kill: kills Staphylococcus aureus RN4220. S. aureus RN4220 growth, OD600, 16 h. inhibition, % (concentration not given with the values). 330,000 compounds, 0.33% hits;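 active = z-score of -3 or lower and OD600 up to 0.18 on both plates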;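 note: plate controls were untreated cells for no effect and reference antibiotic for full effect; stock transfer was 100 nL into about 80 µL; one replicate is shown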
Mtb hypoxia rep growth: second read-out of Mtb hypoxia rep, no call of its own (marks repeat the call); growth inhibition, %; measured here: M. tuberculosis growth (absorbance);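 0% = vehicle and 100% = reference antibiotic; read after six days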
Active calls of the source: *; ? = inconclusive; . = not tested or not shown.

SMILES	Mtb hypoxia rep	Mtb hypoxia rep growth	BJeLR viability	ugtP null kill	Bead autofluor	PrP UTR inh	RN4220 kill
COCCNC(=O)CSc1nnc(CCCN2C(=O)c3cccc4cccc(c34)C2=O)n1-c1ccccc1	4	5	-11	-1	2651	-22	2.1
COCCn1c(C)cc(/C=C2/NC(=O)N(c3ccc(Cl)cc3)C2=O)c1C	8	7	-2	1	10038	-27	2.3
CN1CCN(C(=O)CCCOc2cc(=O)n(C)c3ccccc23)CC1	5	-4	-14	6	3843	-82	0.8
O=C(c1ccco1)n1nc(-c2ccccc2)nc1SCc1ccccc1	.	.	8	3	?	-52	-2.0
Cn1c(=O)oc2cc(S(=O)(=O)N3CCC(C(=O)NCc4cccs4)CC3)ccc21	4	-1	-15	5	4300	40	6.1
CC(=O)Nc1ccc(S(=O)(=O)N2CCN(C(=O)N3CCCC3)CC2)cc1	10	0	1	9	3007	-7	7.0
COc1ccc(N(C(=O)c2ccccc2C)S(=O)(=O)c2cccs2)cc1	9	1	34	84*	2112	17	3.2
c1ccc(N2CCN(c3ncnc4c3oc3ccccc34)CC2)cc1	-12	8	-4	8	2889	-16	23
O=C1NC(=Nc2ccccc2)CS1	4	9	-2	11	4285	-33	4.2
O=C(Nc1cccc(OC(F)(F)F)c1)c1ccc(Br)o1	8	11	-11	-2	16998*	-4	6.5
CCCCn1c(N)c(N(CC(C)C)C(=O)CN2C(=O)C3CCCCC3C2=O)c(=O)[nH]c1=O (stereo not given)	1	9	-4	2	6079	0	1.1
CN1C(=CC=C2C=C(I)C(=O)C(I)=C2)C(C)(C)c2ccccc21	18	2	.	0	3157	-11	-6.3
COC(=O)Cc1nnc(Nc2cccc(C)c2)c2ccccc12	6	0	-3	0	5345	-28	1.2
Cc1cccc(N(Cc2cc(=O)[nH]c3ccccc23)C(=O)CCl)c1	.	.	30	.	4083	-2	.
Cc1ccc(C(=O)C2=C(O)C(=O)N(c3ncccn3)C2c2ccccc2F)o1 (stereo not given)	-3	6	-1	-6	5384	6	-3.5
CCCCCCCCCCCCN1C/C(=C\C(=O)OCC)c2cc(C(F)(F)F)ccc2S1(=O)=O	.	.	-11	.	2947	-15	.
COc1ccc2c3c(ccc2c1)C(=O)/C(=C/O)CC3	19	11	.	77	3326	-52	-5.5
CCCS(=O)(=O)N1CCN(c2cc3c(cc2[N+](=O)[O-])n(C)c(=O)n3C)CC1	0	-9	-6	-2	5147	-7	0.3
Cc1ccc(C)c2[nH]c(=O)c(C(c3nnnn3Cc3ccco3)N3CCc4ccccc4C3)cc12 (stereo not given)	0	7	1	-4	3314	-25	12
CSc1nnc(-c2sc3cc(C(F)(F)F)cnc3c2-c2ccccn2)n1C	.	.	5	11	2826	-23	3.9
O=C(C1CCN(S(=O)(=O)c2cccc3cccnc23)CC1)N1CCN(C2CCCC2)CC1	.	.	-2	6	5977	-11	6.4
O=C(NC1CCCCC1)N1CCCC(CNS(=O)(=O)Cc2ccccc2)C1 (stereo not given)	13	-2	-8	9	4223	-67	2.5
O=c1c(Cc2ccccc2)c(O)ccn1C1CCCCCCC1	-8	-9	1	3	3992	-5	-2.8
CC(C)(C)c1ccc(OCC(=O)NN=CC2CC=CCC2)cc1 (stereo not given)	-1	3	.	10	.	.	6.1
Clc1ccc(SCCOCCN2CCOCC2)cc1	5	7	6	4	4052	-49	4.2
Following part:
SMILES	Mtb hypoxia rep	Mtb hypoxia rep growth	BJeLR viability	ugtP null kill	Bead autofluor	PrP UTR inh	RN4220 kill
O=C(COC(=O)c1ccc(Br)o1)NCCCc1ccccc1	10	8	16	4	3919	-11	0.1
CCn1c(=O)cc(SCC(=O)N2CCN(C)CC2)c2ccccc21	4	6	-5	5	3141	-18	5.9
O=C(CN1C(=O)c2cccnc2Oc2ccc(Cl)cc21)NC1CCCCCC1	15	11	-12	8	6456	-22	-0.6
N#CC1=C(S)N(c2ccccc2)C(c2ccco2)NC1=O (stereo not given)	8	10	-8	11	4387	-17	4.3
CC(CC(=O)N(C(C)C)C(C)C)=NNC(=O)c1ccccc1Br	10	3	.	0	.	.	4.7
S=c1[nH]nc(Nc2cccc(Cl)c2)s1	-6	8	4	2	3365	-15	4.8
Cc1cccc2[nH]c3c(N4CCC5(CC4)OCCO5)ncnc3c12	3	22	10	-8	22045*	-43	3.1
CC(C)(C)c1ccc(-c2nc(N)nc(N)n2)cc1	-5	-5	3	-5	.	.	-1.5
O=S(=O)(NCc1ccccc1)c1ccc(Br)s1	6	3	3	3	2734	-8	6.9
CN(C)NC(=O)c1ccsc1NC(=O)c1ccc(S(=O)(=O)N2CCCC2)cc1	-2	12	12	6	3305	-7	2.4
CN(CC(=O)O)S(=O)(=O)/C=C/c1ccccc1	12	8	-3	14	4716	-18	6.1
Cc1cc2nc(N3CCN(C(=O)c4cccs4)CC3)sc2cc1C	12	8	-6	2	4685	-123	3.5
CCCCCC(=O)NNC(=O)Cc1ccc([N+](=O)[O-])cc1	-3	-1	-6	10	4680	-22	2.5
CCC(C)Nc1nc(OCC(F)(F)F)nc(OCC(F)(F)F)n1 (stereo not given)	-5	-7	7	-10	12709	-32	-4.3
CCCCCC1CC(/C(C)=N/NC(N)=O)OC1=O (stereo not given)	.	.	-8	.	3290	-18	.
Cc1ccc2c(c1)cc(CN(Cc1ccco1)C(=O)COc1ccccc1)c1nnnn12	2	3	-4	6	9036	-16	0.8
Brc1ccc(-c2cnc(-c3cccs3)o2)cc1	-6	2	-2	33	9575	-52	-3.5
COc1cc(Cl)ccc1OCc1cc(C(=O)N2CCCC(OC)C2)no1 (stereo not given)	-3	6	-1	2	5565	-90	2.5
CCCOc1ccc(/C=N\NC(=O)CCc2n[nH]c(=O)[nH]c2=O)cc1OC	.	.	3	.	2410	-7	.
CCc1cc(-c2nnc(SCC(=O)NC3CC3)n2C)cs1	.	.	0	.	5889	-12	.
COc1ccc(NS(=O)(=O)c2cccc(C(=O)NCCCn3ccnc3)c2)cc1	3	-5	2	2	6707	-13	3.6
COc1cc(OC)c2ccc(=O)oc2c1C(CCN1CCCCC1)c1ccc(N(C)C)cc1 (stereo not given)	9	2	-5	-1	3945	-23	7.1
COc1ccc(-c2onc(C)c2C)cc1S(=O)(=O)NCCc1ccco1	20	14	-5	3	6059	-1	2.8
CCc1ccc(NC2=NCC(c3ccccc3)S2)cc1 (stereo not given)	-29	3	7	-5	4415	-46	-5.0
COc1ccc(C(C(=O)NC2CCCCC2)N(C(=O)c2snc(C(N)=O)c2N)c2ccc(OC)cc2OC)cc1 (stereo not given)	-1	2	2	7	4404	-5	0.4

2 entries from above, with two lines to a compound.
Second line of a record: Mtb hypoxia rep	Mtb hypoxia rep growth	BJeLR viability	ugtP null kill	Bead autofluor	PrP UTR inh	RN4220 kill
- O=C(CN1C(=O)c2cccnc2Oc2ccc(Cl)cc21)NC1CCCCCC1
→ 15	11	-12	8	6456	-22	-0.6
- Brc1ccc(-c2cnc(-c3cccs3)o2)cc1
→ -6	2	-2	33	9575	-52	-3.5

The results go on:
SMILES	Mtb hypoxia rep	Mtb hypoxia rep growth	BJeLR viability	ugtP null kill	Bead autofluor	PrP UTR inh	RN4220 kill
O=C(NCc1ccncc1)C(=O)NCC(c1ccccc1)c1ccccc1	3	16	8	7	.	.	-0.3
COc1ccc(S(=O)(=O)N2CCCC2)c2ccccc12	-1	5	6	4	4132	-8	3.3
CCOc1cc(C=NNC(=O)Cn2nnc3ccccc32)ccc1O	1	5	.	0	.	.	8.0
COc1ccc(-c2cc(C(=O)Nc3ccc(C)cc3)no2)cc1	14	5	-5	2	9720	.	7.2
CCCNC(=O)N1C2CCC1C(C(=O)OC)=C(c1ccc(S(C)(=O)=O)cc1)C2 (stereo not given)	20	4	.	4	.	.	4.7
Cc1ccc(OCCOc2ccc(Br)cc2/C=N\NC(N)=O)cc1	.	.	6	.	2546	-12	.
CC(=O)C1C2c3ccccc3O[C@@]1(C)N=c1s/c(=C/c3ccoc3)c(=O)n12 (stereo not given in full)	.	.	-2	.	2165	-15	.
CC(C)(C)OC(=O)N[C@H](Cc1ccccc1)C(=O)N1CCC(C(=O)O)CC1	.	.	4	.	2905	-17	.
CCN(C(=O)CSc1ccc2c(c1)OCCO2)C1CCS(=O)(=O)C1 (stereo not given)	7	10	-5	1	3637	-9	4.7
O=C(CSc1nnc(Cn2cnc3ccccc32)o1)Nc1cccc2ccccc12	4	15	3	-2	4248	0	3.8
O=C(CCN1CCOCC1)NNC(=O)c1ccc([N+](=O)[O-])cc1[N+](=O)[O-]	2	0	.	5	3509	-15	0.1
CCCn1cc(SCC(=O)NCc2ccco2)c2ccccc21	4	11	-5	-4	11075	-2	2.4
COc1ccccc1N(C)S(=O)(=O)c1ccc(C(=O)OCC(=O)NCc2cccs2)cc1	7	8	5	11	4889	-2	5.8
Cc1cccc(CNc2ccc(C(CC(N)=O)NC(=O)c3ccccc3)cc2[N+](=O)[O-])c1 (stereo not given)	-3	7	-2	-14	3860	4	-2.0
O=c1[nH]c(NN=Cc2ccc3c(c2)OCO3)nc2ccccc12	-9	8	.	-18	.	.	3.8
C/C(=N/NS(=O)(=O)c1ccc(Br)cc1)c1c[nH]c2ccccc12	.	.	5	.	4711	-12	.
COc1ccc(Oc2cccc(Cl)c2CNC(=O)CCCC(=O)O)cc1	0	-9	11	0	6395	.	0.5
CC1(C)Cc2cccc(OCC(O)CN3CCN(c4ccccn4)CC3)c2O1 (stereo not given)	.	.	-5	5	4352	-23	2.8
COC(=O)C1=C(c2ccc(F)cc2F)CC2CCC1N2C (stereo not given)	16	12	.	0	.	.	3.8
COc1ccccc1NCC(=O)NN=Cc1c(O)ccc2ccccc12	-2	-4	.	24	.	.	3.1
O=C(O)CCn1cc(C=C2C(=O)NC(=S)NC2=O)c(-c2ccccc2)n1	0	8	6	-2	4255	74*	5.5
O=C(Cn1c(=O)oc2ccccc21)c1ccccc1	.	.	-5	4	5992	-2	1.4
CCCN1CCCC2Cc3nc(N)ncc3CC21 (stereo not given)	15	9	.	-1	.	.	1.8
CCOc1cc(/C=C2\C(=N)N3N=C(CC)SC3=NC2=O)ccc1OCCOc1ccc(NC(C)=O)cc1	-15	1	8	-10	3890	-25	2.5
CCCn1c(N)c(C(=O)CSc2nnc(C3CC3)n2C2CC2)c(=O)[nH]c1=O	4	2	.	1	3242	-9	0.3

3 compounds drawn at random from those above:
SMILES	Mtb hypoxia rep	Mtb hypoxia rep growth	BJeLR viability	ugtP null kill	Bead autofluor	PrP UTR inh	RN4220 kill
Cn1c(=O)oc2cc(S(=O)(=O)N3CCC(C(=O)NCc4cccs4)CC3)ccc21	4	-1	-15	5	4300	40	6.1
CC1(C)Cc2cccc(OCC(O)CN3CCN(c4ccccn4)CC3)c2O1 (stereo not given)	.	.	-5	5	4352	-23	2.8
COc1ccc(N(C(=O)c2ccccc2C)S(=O)(=O)c2cccs2)cc1	9	1	34	84*	2112	17	3.2

(more compounds)
SMILES	Mtb hypoxia rep	Mtb hypoxia rep growth	BJeLR viability	ugtP null kill	Bead autofluor	PrP UTR inh	RN4220 kill
NC(=O)C1(NC(=O)C2CC3(CC(c4cccc(NC(=O)C5CCC(=O)N5)c4)=NO3)CN2C(=O)c2cnccn2)CC1 (stereo not given)	8	8	.	-2	.	.	0.7
Cc1ccc(SCC(=O)OCC(=O)N(C)CC(=O)Nc2ccc(F)cc2)cc1	5	-1	-2	12	4219	-16	4.6
COc1ccccc1C=NNC(=O)C(=O)NN=Cc1ccccc1OC	8	4	.	-2	2950	0	4.6
COc1cccc(NC(=O)CSc2ncc(S(=O)(=O)c3ccccc3)c(=O)[nH]2)c1	-8	17	-8	-6	4095	-9	0.5
CN(C)/C=C1/C(=O)Nc2ccccc21	-5	-1	8	5	?	-6	2.4
O=C(NCC(O)c1ccc([N+](=O)[O-])cc1)c1cccc(S(=O)(=O)N2CCCC2)c1 (stereo not given)	2	3	5	3	4616	-76	3.6
CC(C)CCN1CCC(N)=NC1=O	-1	6	.	8	4776	-9	5.3
Cc1cccc(OCc2nc3c4c(ncn3n2)-c2ccccc2CC42CCCC2)c1	7	4	-12	26	8903	-43	0.1
COc1ccc(CN2CCN(C)CC2)cc1OCc1ccccc1	2	0	33	5	20197*	-33	2.5
O=C(CSCc1ccccc1Cl)NCCSc1ccccn1	15	-3	2	3	4309	-18	1.8
C=CCn1c(NC(=O)c2ccccc2)nc2ccccc21	-6	12	-1	-8	3581	-9	6.9
